GIV-Gai inh: GIV-Galpha-i interaction inhibition; P08753; Galpha-i3/FITC-GIV peptide fluorescence polarization, 90 min; active compounds read low; scaled: aluminum fluoride 0%, vehicle 100%; percent of control (FP), % (no concentration beside the values); 210,000 compounds, 0.42% hits; AID 1224905;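 active = replicate mean at 85% of control or lower, very high polarization wells dropped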;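 note: wells of about 15 µL received 100 nL stock; the first replicate is given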
Target sequence (P08753 whole entry, looked up): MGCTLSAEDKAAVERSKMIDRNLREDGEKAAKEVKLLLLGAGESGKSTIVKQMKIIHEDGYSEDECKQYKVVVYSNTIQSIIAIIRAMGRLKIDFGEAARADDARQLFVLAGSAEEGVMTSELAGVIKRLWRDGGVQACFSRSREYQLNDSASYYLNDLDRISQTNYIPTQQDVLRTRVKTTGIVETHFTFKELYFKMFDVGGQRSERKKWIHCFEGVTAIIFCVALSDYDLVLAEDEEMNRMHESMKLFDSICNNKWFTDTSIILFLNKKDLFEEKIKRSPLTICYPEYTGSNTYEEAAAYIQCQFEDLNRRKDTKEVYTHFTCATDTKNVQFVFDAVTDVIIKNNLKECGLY
Sa growth 42C: S. aureus growth inhibition | S. aureus RN4220 growth, OD600, 20 h, 42 °C; active compounds read low | 170,000 compounds, 0.53% hits | relative growth, % (test concentration not listed) | AID 720641;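 active = growth at 42 °C up to 50% and 20 or more points under that at 30 °C, or under 10% at both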;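 note: 300 nL library stock went into each well; scaled to the means of positive and negative controls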
HCMV UL50-53 inh: inhibitors of HCMV UL50-UL53 nuclear egress complex interaction; HTRF UL50-UL53 interaction, normalized percent inhibition; inhibition, % (concentration not given with the values); 190,000 compounds, 0.15% hits;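 active = both replicates at 50% or more, plus weaker picks with an unusually low signal ratio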;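 note: stock transfer was 100 nL into about 20 µL; 0% = negative control wells and 100% = wells with untagged competitor protein; inactives centre near -12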
Sa growth 42C second temp: also measured in Sa growth 42C; calls as there; relative growth, %; measured here: growth at 30 °C;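 optical density after 20 h as mean of two plates; 100% = untreated growth and lower means inhibition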
Starred values were filed as active, the others as inactive; . = not tested or not shown; & = joins results of further samples.

compound,GIV-Gai inh,Sa growth 42C,Sa growth 42C second temp,HCMV UL50-53 inh
CC(=O)N1CCc2c(sc(NC(=O)c3ccco3)c2C(N)=O)C1,123.6,99.4,70.3,-25.4
CCCCN(C)Cc1c(O)ccc2c(=O)c(-c3ccccc3OC)coc12,98.9,88.5,85.7,-7.7
CCCN(C(=O)C1c2ccccc2C(=O)N(CC(C)C)C1c1cccs1)c1ccccc1C (stereo not given),102.2,60.2,55.1,.
Cc1cc(S(=O)(=O)NCC2CCN(C(=O)OC(C)(C)C)CC2)c(C)o1,104.8,95.4,87.0,-32.6
CCc1cccc(Nc2cc(C(=O)O)nc3ccc(C)cc23)c1,129.5,.,.,-117.1
N#Cc1ccsc1NC(=O)CSc1ccccn1,.,84.8,88.7,-33.1
CC(C)N(Cc1ccccc1)C(=S)Nc1cccnc1,.,92.9,91.0,-4.6
C=CCn1c(N)cc(=O)nc1SCC(=O)N1c2ccccc2Sc2ccccc21,104.6,92.9,83.1,5.9
COC(=O)CCS(=O)(=O)c1ccc(Br)cc1,.,103.5,80.7,-5.0
CNc1c(C)n(C)n(-c2ccccc2)c1=O,98.5,102.0,83.5,-18.2
CCC(C)c1ccc(NC(=O)c2cc3ccccc3o2)cc1 (stereo not given),104.5,91.4,90.2,.
O=C(COCC(=O)N1CCCc2ccccc21)N1CCCc2ccccc21,.,91.7,95.9,-1.0
Cc1ccc(C(=O)N[C@H](C(=O)NC2CCCCC2)C(C)C)cc1,.,82.2,95.0,-21.6
CC(C)(C)Nc1nc(NC(C)(C)C)nc(N2CCNCC2)n1,.,106.6,78.3,-9.9
Cc1cc(NC(=O)c2ccccc2)n(CCOC(=O)c2ccccc2)n1,.,95.0,74.0,-32.4
CCOC(=O)N1CCN(C(=O)COC(=O)C(C)N=C2NS(=O)(=O)c3ccccc32)CC1 (stereo not given),.,80.3,89.0,-16.0
COc1ccc(OCc2nnc(SC(C)c3nc4ccccc4c(=O)[nH]3)n2C)cc1 (stereo not given),104.5,75.0,97.1,-3.0
Cc1cc(C)n2nc(N(CCOc3ccccc3)S(=O)(=O)c3ccc(Cl)cc3)nc2n1,107.8,.,.,-20.1
Cn1c(=O)c2c3c(cnc2n(C)c1=O)C(=O)CC(c1cccs1)C3 (stereo not given),104.5,.,.,-22.1
CCSCCOC(=O)C1=C(C)N(C)C(=O)NC1c1cc2c(cc1[N+](=O)[O-])OCO2 (stereo not given),101.8,.,.,-24.8
CCCCC1CCC(C(=O)Nc2cc(C)nn2-c2ncnc3c2cnn3-c2ccc(F)cc2)CC1 (stereo not given),99.5,.,.,11.4
Cc1cc(C)c(S(=O)(=O)NC2COc3ccc(Br)cc3C2)cc1C (stereo not given),101.6,.,.,4.1
COc1ccc(C2C(C(N)=O)C(=O)NC(O)(c3ccccc3)C2C#N)cc1 (stereo not given),101.4,100.2,99.4,4.0
CCCCCOc1ccc(C2C3=C(CC(C)(C)CC3=O)Nc3ccccc3N2C(=O)CC)cc1 (stereo not given),101.2,.,.,-14.7
CCCCCCCNC(=O)C1CCN(c2ccc(-c3ccccc3)nn2)CC1,98.3,.,.,31.0*
O=C(O)c1ccc(-n2[nH]c3oc4cc(=O)ccc-4cc3c2=O)cc1,96.2,.,.,-128.6
CCN(CC)c1ccc(C(=O)Nn2c(-c3ccc(OC)c(OC)c3)nc3ccccc3c2=O)cc1,102.9,.,.,-14.8
Cc1cccc(N2C(=O)CS/C2=N\NC(=O)c2cccnc2)c1C,95.3,88.2,107.4,15.9
COc1cccc(/C=C/C(=O)N2CCN(c3n[nH]c(=O)[nH]c3=O)CC2)c1OC,.,86.0,94.9,-23.9
COC(=O)C(CCSC)Nc1ncnc2onc(-c3ccc(F)cc3)c12 (stereo not given),105.7,92.6,84.5,-9.4
CC(=O)Nc1c(O)nc(SCC(=O)N(C2CCCCC2)C2CCCCC2)[nH]c1=O,103.0,91.9,92.9,-7.0
CCOc1ccc(S(=O)(=O)NCC(C)(C)N2CCOCC2)cc1,.,103.7,92.3,7.7
CN(CCNc1nc(-c2ccccc2)no1)Cc1ccccc1,97.2,107.5,85.2,14.3
COc1ccc(-c2nnn(CC(=O)N(CC3CCCO3)C(C(=O)NC3CCCCC3)c3cccs3)n2)cc1 (stereo not given),100.5,95.4,90.8,-30.6
Cc1ccc(OCC(=O)Nc2cc(C)ccc2OCc2cc(=O)n3oc(C)cc3n2)c(C)c1,102.2,.,.,22.3
Cn1cc(C(=O)N2CCCc3ccccc32)c(-c2ccc3c(c2)OCCCO3)n1,.,88.3,89.0,-22.1
Cc1cc(C(=O)NCc2cccnc2)c2c(C)nn(-c3ccccc3)c2n1,99.2,.,.,-9.6
S=C(NCC1CCCO1)N1CCN(C2CCCCC2)CC1 (stereo not given),104.6,97.8,109.2,13.9
Cc1cc(C(=O)OC2CCOC2=O)c(C)n1-c1ccccc1 (stereo not given),.,116.9,100.7,10.1
Cc1nnc2ccc(N3CCC(C(=O)NCc4cccc(Cl)c4)CC3)nn12,98.8,.,.,-27.2
O=C1CCc2nc3ccccc3n21,.,104.8,94.9,14.8
Cc1csc(NC(=O)CCc2nc(-c3nn(-c4ccc(F)cc4)c(=O)n(C)c3=O)no2)n1,104.7,.,.,-134.3
CCOC(=O)c1cc(CO)c(C)nc1C,.,102.8,83.8,-17.8
O=C(Nc1ccc(F)cc1)c1cc2cc3ccc(Cl)cc3nc2o1,108.6,110.0,86.5,-9.3
O=C(COc1ncnc2cc(Cl)ccc12)c1ccc(F)cc1,106.7,108.8,88.2,-20.0
CCOC(=O)c1sc2ncn(/N=C/N(C)C)c(=O)c2c1C,103.4,98.5,109.3,-3.8
COc1ccc(N2C(=O)C3C4C=CC(CC4)C3C2=O)c([N+](=O)[O-])c1 (stereo not given),103.0,.,.,-18.7
CC1CN(C(=O)N2CCC(C(=O)NCc3ccco3)CC2)c2cc(Cl)ccc2O1 (stereo not given),104.5,123.5,87.4,-12.2
Cc1c(C#N)c(NC(=O)CN2CCCC2c2cccs2)n(Cc2ccco2)c1C (stereo not given),.,111.8,90.1,-20.8
Cc1ccc(Cl)cc1N1CCN(CCCNc2ncnc3onc(-c4ccc(F)cc4)c23)CC1,98.2,83.3,96.0,.

Another view of part of the listing above:
COC(=O)C(CCSC)Nc1ncnc2onc(-c3ccc(F)cc3)c12 (stereo not given)
  GIV-Gai inh = 105.7
  Sa growth 42C = 92.6
  Sa growth 42C second temp = 84.5
  HCMV UL50-53 inh = -9.4
CC(=O)Nc1c(O)nc(SCC(=O)N(C2CCCCC2)C2CCCCC2)[nH]c1=O
  GIV-Gai inh = 103.0
  Sa growth 42C = 91.9
  Sa growth 42C second temp = 92.9
  HCMV UL50-53 inh = -7.0
CCOc1ccc(S(=O)(=O)NCC(C)(C)N2CCOCC2)cc1
  GIV-Gai inh = .
  Sa growth 42C = 103.7
  Sa growth 42C second temp = 92.3
  HCMV UL50-53 inh = 7.7
CN(CCNc1nc(-c2ccccc2)no1)Cc1ccccc1
  GIV-Gai inh = 97.2
  Sa growth 42C = 107.5
  Sa growth 42C second temp = 85.2
  HCMV UL50-53 inh = 14.3

Later entries.
compound,GIV-Gai inh,Sa growth 42C,Sa growth 42C second temp,HCMV UL50-53 inh
COCCOC(=O)C1=C(C)NC2=C(C(=O)CC(c3ccc(OC)c(OC)c3)C2)C1c1ccc(Cl)cc1Cl (stereo not given),96.8,.,.,-7.2
COc1ccc(-n2cc(C(=O)NCc3ccccc3Cl)c3ccccc3c2=O)cc1,110.0,101.0,116.2,.
CCOC(=O)c1noc2ncn(CC(=O)N(C)C3CCCCC3)c(=O)c12,111.6,.,.,-2.4
Cc1ccc(S(=O)(=O)C(CNC(=O)C(=O)NCCc2ccc(Cl)cc2)c2cccs2)cc1 (stereo not given),99.6,111.0,89.0,.
CC1CCC(C(C)C)C(OC(=O)CSc2nnc(-c3cccnc3)n2N)C1 (stereo not given),.,95.2,100.0,-1.2
COC(=O)c1ccccc1NC(=O)C1=Cc2ccc(C)cc2OC=C1,103.2,.,.,-26.3
CCN1CCN(CCC(=O)Nc2sc(-c3ccccc3)cc2C(=O)OC)CC1,.,114.0,91.9,-5.4
CC(=O)NC(=O)c1cc2cc(Br)ccc2oc1=Nc1ccc(C(C)=O)cc1,99.5,.,.,-18.1
O=C(COc1ccc(Br)cc1F)NCCc1ccccn1,.,110.0,83.7,1.6
C/C(=N\n1nnnc1Nc1ccccc1)c1ccccc1Cl,.,107.6,89.2,-4.1
CCc1ccc(CN(Cc2ccco2)C(=O)c2cc(-c3ccc(C)c(F)c3)on2)cc1,113.7,92.5,93.4,-0.1
CCOC(=O)c1[nH]c(C)c(S(=O)(=O)NCCC2=CCCCC2)c1C,110.0,.,.,-9.7
N#CCCCn1c(O)c(N=NC(=O)C2COc3ccccc3O2)c2ccccc21 (stereo not given),97.7,69.3,37.9,-74.6
CC(C)CN(CC(C)C)S(=O)(=O)N1CCC(C(=O)NC(C)C)CC1,100.4,89.9,88.2,2.3
CC(NC(=O)c1ccc2c(c1)OCCO2)c1ccc2c(c1)OCO2 (stereo not given),100.7,93.3,101.1,7.8
CNC(=O)N1CCc2cc(S(=O)(=O)N3CCCCC3)ccc21,104.3,.,.,20.8
Cc1ccc(CCNS(=O)(=O)c2ccc3c(c2)CCN3C(=O)CCC(=O)O)cc1,99.2,95.5,95.3,9.2
COc1cc(OC)c(NC(=O)Cn2cnc3nc4c(cc3c2=O)CCCC4)cc1Cl,99.7&103.5,120.1,93.0,-20.1
CC1CCN(S(=O)(=O)c2nnc(NC(=O)c3ccccc3Cl)s2)CC1,101.6,.,.,-7.4
COCCn1c(=O)[nH]c2cc(C(=O)N3CCN(c4ccc(Cl)cc4)CC3)ccc2c1=O,102.2,91.3,84.4,-10.8
CC(NC(=O)C1CCCN(C(=O)c2cc3sccc3n2C)C1)C12CC3CC(CC(C3)C1)C2 (stereo not given),104.5,96.1,89.7,-19.7
CCCCc1nnc(N)s1,.,122.0,93.1,0.2
Cc1cccc(CCNC(=O)c2cc3c(C)nc4ccccc4c3o2)c1,107.5,93.1,61.6,-8.2
Cc1cc(NC(c2nnc(-c3ccccc3)o2)c2ccccc2F)ccc1Br (stereo not given),108.7,98.1,98.5,8.0
CC1=C(C(=O)N2CCCCC2)C(c2ccc(O)cc2)C2=C(CC(C)(C)CC2=O)N1 (stereo not given),97.8,106.1,93.9,.
O=C(CCCn1sc2ccccc2c1=O)NCCc1ccccc1,97.8,87.3,76.4,.
Cc1cccc(CSc2ncc(Cl)c(C(=O)Nc3nnc(C)s3)n2)c1,106.7,81.5,84.0,-1.9
CN(C)/C=N/N1CC(O)=C(c2nc3ccccc3s2)C1=N,.,112.5,95.3,-33.2
Cc1ccc2c(c1)-c1c(cnn1CC(=O)NCc1ccccc1)CO2,101.7,.,.,-10.4
CCCCN(C(=O)c1ccccc1)c1ccccc1,102.3,105.2,81.6,-9.8
CN=c1scc(C)n1/N=C/c1c(Cl)cccc1Cl,108.3,126.9,88.4,-23.2
CCOC(=O)c1c(C)[nH]c(C)c1S(=O)(=O)NCC(=O)NC(C)(C)C,104.7,.,.,-18.6
O=C(COC(=O)c1cccc(F)c1)Nc1cc(Cl)cc(Cl)c1,.,100.1,96.1,-14.3
N#CC1=C(N)NC(SCC(=O)Nc2ccc(Br)cc2)=C(C#N)C12CCCCC2,102.7,108.3,38.0,-1.5
COC(=O)C1=C2C(=O)NCCN2C2=C(C(=O)CCC2)C1c1ccc(OC)c(OC)c1 (stereo not given),105.0,89.4,97.0,-31.9
CCOC(=O)c1ccccc1NC(=O)N(C)CCc1c(C)nn(CC)c1C,101.1,86.4,85.3,.
CN1c2ccsc2C(=O)/C(=C\Nc2ccccn2)S1(=O)=O,102.6,97.0,91.1,5.5
Cc1nc2nc3c(c(N(C)C)n2n1)CCC3,110.4,.,.,-4.5
O=C(C1CCCN1S(=O)(=O)c1cccc2nsnc12)N1CCN(Cc2ccc3c(c2)OCO3)CC1 (stereo not given),.,72.2,86.2,-76.2
CC(C)(C)OC(=O)C1CCC(C(=O)Oc2ccc3c4c(c(=O)oc3c2)CCCC4)CN1 (stereo not given),.,81.9,93.3,5.4
OCCNc1ncnc2c1sc1nc(-c3ccccc3)c3c(c12)CCCC3,108.1,92.8,84.8,-1.9
COc1ccc(-c2cc3nc(C)cc(N4CCOCC4)n3n2)cc1OC,104.4,.,.,-24.6
Cc1cc(NC(=O)CCn2ccc(C)n2)c2ccccc2n1,104.0,95.8,80.7,-30.4
CCc1ccccc1NC(=O)C1CCN(C2=NS(=O)(=O)C(c3ccc(C)c(C)c3)=C2C)CC1,101.5,82.6,93.1,.
O=C(CSc1ccccc1)Nc1cccc(C(=O)O)c1,105.3,95.9,102.8,9.4
O=C(c1ccc(Br)cc1)N1CCN(c2cc(=O)n3nc(-c4ccccc4)sc3n2)CC1,100.0,.,.,-22.3
